# TRHR agonist – agonists of human TRH receptor; AID 493084; P34981; activation, % at 2 µM; TRHR cells, calcium flux fluo-8, FDSS agonist mode; 0.18% of 360,000 active; note: 0% is about no effect
# Target sequence (P34981 whole entry, looked up): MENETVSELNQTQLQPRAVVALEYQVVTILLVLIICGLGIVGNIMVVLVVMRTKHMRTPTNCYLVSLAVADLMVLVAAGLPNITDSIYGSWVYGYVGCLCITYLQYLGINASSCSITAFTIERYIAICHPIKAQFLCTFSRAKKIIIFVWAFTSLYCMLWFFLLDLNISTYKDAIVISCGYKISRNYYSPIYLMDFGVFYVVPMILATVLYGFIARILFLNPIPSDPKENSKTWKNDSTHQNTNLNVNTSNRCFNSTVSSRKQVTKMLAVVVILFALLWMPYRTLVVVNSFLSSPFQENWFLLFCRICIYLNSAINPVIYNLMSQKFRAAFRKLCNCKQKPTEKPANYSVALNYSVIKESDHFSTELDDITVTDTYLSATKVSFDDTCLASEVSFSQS
#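 Agonist-mode FDSS calcium read (Ex 480/Em 530, 1 s cycles) in 1536-well TRHR cells with fluo-8 dye, after 10-cycle baseline and 23 nL compound addition; TRH at EC20 (10 nM final) added afterwards for the enhancer phase.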
# D1 ag – human D1 receptor agonism. P21728. HEK293 T-REx D1 cells, calcium flux, agonist mode. activation, % at 2 µM. 1% of 360,000 active. AID 504660; note: 0% is about no effect
# Target sequence (P21728 whole entry, looked up): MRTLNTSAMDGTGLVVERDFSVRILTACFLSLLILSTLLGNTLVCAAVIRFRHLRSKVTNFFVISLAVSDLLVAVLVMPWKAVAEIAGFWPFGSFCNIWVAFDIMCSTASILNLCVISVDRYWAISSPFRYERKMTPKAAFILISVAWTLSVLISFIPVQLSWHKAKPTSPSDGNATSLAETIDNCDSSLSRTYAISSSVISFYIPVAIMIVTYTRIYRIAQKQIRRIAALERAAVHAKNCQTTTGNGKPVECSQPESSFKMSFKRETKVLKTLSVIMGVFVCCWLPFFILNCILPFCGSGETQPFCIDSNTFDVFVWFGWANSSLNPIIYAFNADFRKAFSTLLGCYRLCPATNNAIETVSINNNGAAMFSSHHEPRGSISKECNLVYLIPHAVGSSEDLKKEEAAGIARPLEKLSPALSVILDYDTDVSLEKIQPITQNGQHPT
#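 Agonism was scored from calcium flux recorded over 180 s (1 read/s) after pintool compound addition, following a 10-cycle baseline. Cells were inducible force-coupled HEK293 TREx D1, plated overnight at 30 C and loaded with no-wash calcium dye.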
# TRHR enhancer – allosterically enhances the human TRH receptor | P34981 | TRHR cells, fluo-8 calcium fluorescence, EC20 TRH enhancement | enhancement, % at 2 µM | 0.66% of 360,000 active | AID 493056; in the data active = enhancement above about 30%; note: 0% is about no effect
#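 TRHR-expressing cells loaded with fluo-8 calcium dye were read kinetically (ex 480/em 530) during compound addition, then stimulated with an EC20 of TRH (10 nM final). Enhancement of the Gq-mediated intracellular calcium response was scored.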
# D2 antagonist – antagonizes the human D2 dopamine receptor; P14416; HEK293 TREx D2 cells, calcium flux, dopamine EC80; inhibition, % at 10 µM; 2% of 340,000 active; AID 485344; in the data active = inhibition above about 30%; note: 0% is about no effect
#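 Overnight-induced (tetracycline, 30 C) HEK293 T-REx cells carrying force-coupled D2 receive a no-wash calcium dye, then compound, then EC80 dopamine at 180 s; signals are read kinetically throughout.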
# D2 PAM – positively modulates the human D2 dopamine receptor allosterically. HEK293 T-REx D2, calcium flux, EC20 dopamine potentiation. potentiation, % at 10 µM. 0.34% of 340,000 active. P14416;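 active = potentiation over 3 SD above the plate norm, cut at about 30% in these data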; note: 0% is about no effect
#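 Cells plated with tetracycline inducer and held overnight at 30 C; calcium dye loaded 30–90 min at room temperature; baseline taken, compound added and read 180 s; EC20 dopamine then added and read 180 s.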
# D1 PAM – human D1 dopamine receptor positive modulation. P21728. HEK293 TREx D1 cells, calcium flux, dopamine EC20 potentiation. potentiation, % at 10 µM. 0.036% of 360,000 active. AID 504651; in the data active = potentiation above about 30%; note: 0% is about no effect
# D2 ag – activates the human D2 dopamine receptor; HEK293 T-REx D2 cells, calcium flux agonist mode; activation, % at 2 µM; 0.53% of 340,000 active;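 active = activation over 3 SD above normal in the single-dose calcium agonist read, cut at about 30% in these data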; note: 0% is about no effect
#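 Tetracycline-induced HEK293 T-REx cells with force-coupled D2 receptor, plated overnight at 30 C, loaded with no-wash calcium dye. After a 10 s baseline, compound was pin-added and calcium flux read kinetically for 180 s; calcium rises flagged agonists.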
# D1 antag – antagonists of human D1 dopamine receptor; P21728; HEK293 TREx D1 cells, calcium flux, dopamine EC80; stronger effect = lower value; activity change, negative = inhibition, % at 10 µM; 3.2% of 360,000 active; in the data active = activity change below about -30%; note: % is set by controls: 0 for no effect and ±100 for the full control effect
#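 Kinetic fluorescence of a calcium dye serves as the read-out. D1-expressing Hek293 Trex cells, induced overnight at 30 C, are exposed to compound for 180 s before an EC80 dopamine addition, then read 180 s further.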
# * hit, by the source's call; . = no result given. Cut-off read from the data, not from the text of the source, unless noted: active = activation above about 30%; inactive = the rest. The list is partial; count on the stated rates, not on these rows.
SMILES,TRHR agonist,D1 ag,TRHR enhancer,D2 antagonist,D2 PAM,D1 PAM,D2 ag,D1 antag
Cn1c(=O)c2c(nc(Cl)n2Cc2ccc(Cl)c(Cl)c2)n(C)c1=O,-0.4,2,4,-9,20,-6,-0.1,3
C=CCn1c(C)nnc1SCC(=O)Nc1ccccc1C(=O)NC1CC1,0.2,3,13,4,4,-3,-0.5,-9
COc1ccc(CN2C(=O)c3cccnc3C2=O)cc1S(=O)(=O)NCc1ccccc1,0.1,0,1,5,-1,-6,5.2,-9
O=C(c1cc(-c2ccccn2)nc2ccc(Br)cc12)N1CCN(S(=O)(=O)c2ccccc2)CC1,0.0,2,1,7,15,2,0.1,2
O=C(Nc1cccc(C(F)(F)F)c1)NC1CCN(S(=O)(=O)c2ccc(F)cc2)CC1,0.3,4,5,-7,-15,6,0.5,-14
CCOc1cc2[nH]c(=S)n(CCCN3CCOCC3)c(=O)c2cc1OCC,-0.2,1,5,-6,17,-3,-2.2,11
CCCCCOc1ccc(C(=O)C(c2ccccc2)N2CCOCC2)cc1 (centres undefined),0.3,4,0,2,0,-2,0.9,10
O=C(c1ccccc1F)N1CCC(N2CCCCCC2)CC1,-0.4,-3,7,15,20,-10,0.6,16
CC(=O)c1sc(NC(=O)COc2ccc(Br)cc2)nc1C,0.8,5,0,5,8,-4,-0.1,-6
CCOC(=O)c1cnc2ccccc2c1Nc1cccc(C(=O)O)c1,0.4,-2,1,-8,5,-7,-0.7,-25
Cc1ccc(S(=O)(=O)NCC(=O)OCC(=O)Nc2cccc(S(=O)(=O)NC3=NCCCCC3)c2)cc1,8.1,3,9,10,13,-5,-1.4,-19
CCOc1ccc(C(=O)C(c2ccccc2)N2CCOCC2)cc1 (centres undefined),-0.6,1,4,-17,5,3,0.0,-8
COC(=O)COc1ccc2oc(-c3ccc(OC)cc3)cc(=O)c2c1,-0.1,0,3,.,-10,3,0.5,5
CCN1C(=O)C2(C(C(=O)c3cc4ccccc4o3)=C(O)C(=O)N2CCCN(C)C)c2ccccc21 (centres undefined),0.5,4,5,-8,5,-2,-1.0,7
Cc1nc2ccc(NC(=O)N3CCSCC3)cc2s1,0.2,0,-8,-3,-7,-3,1.6,4
Cc1ccc2nc(NCc3ccccc3Cl)c3nnnn3c2c1,0.9,3,6,.,2,3,-0.5,11
CCC(Sc1nnc2c3ccccc3n(C)c2n1)C(=O)Nc1nnc(C(C)C)s1 (centres undefined),-0.6,-1,-22,.,-1,-3,-0.1,-13
CCOc1cc(-c2nc3cc(C)ccn3c2NCC2CCCO2)ccc1O (centres undefined),1.3,4,-3,5,4,-9,-0.1,5
COc1cccc2cc(C(=O)CS(=O)(=O)c3ccc(C)cc3)c(=O)oc12,2.1,2,22,8,7,3,1.3,-2
CC(C)c1nc(N2CCN(C(=O)c3ccco3)CC2)c2c3c(sc2n1)CCCC3,-0.5,-4,4,-13,8,3,0.3,-10
CCN(CC)S(=O)(=O)c1ccc2c(c1)nc(CCC(=O)OCc1c(C)noc1C)n2C,-0.7,3,-5,-9,-2,-2,0.0,5
Cc1nnc(SCC(=O)Nc2ccc3c4c(cccc24)CC3)n1C,-1.2,-4,3,-9,7,4,0.3,16
O=C(Cc1cccs1)NC(c1ccccc1)c1ccccc1,-0.8,1,17,-2,4,-3,0.6,1
Cn1c(SCC(=O)NCCc2ccccc2)ncc(C(=O)Nc2ccc(F)cc2)c1=O,1.4,1,0,-5,6,2,0.4,-5
COc1ccc(OC)c(NC(=O)c2oc3c(c2C)-c2nn(Cc4ccc(Cl)cc4)cc2CC3)c1,-0.3,1,0,.,-2,-4,-0.9,11

# Some of the entries above in another layout.
compound	TRHR agonist	D1 ag	TRHR enhancer	D2 antagonist	D2 PAM	D1 PAM	D2 ag	D1 antag
CCN(CC)S(=O)(=O)c1ccc2c(c1)nc(CCC(=O)OCc1c(C)noc1C)n2C	-0.7	3	-5	-9	-2	-2	0.0	5
Cc1nnc(SCC(=O)Nc2ccc3c4c(cccc24)CC3)n1C	-1.2	-4	3	-9	7	4	0.3	16

# More records
SMILES,TRHR agonist,D1 ag,TRHR enhancer,D2 antagonist,D2 PAM,D1 PAM,D2 ag,D1 antag
CC(C)N(C(=O)c1ccc2nc(-c3ccccc3)c(-c3ccccc3)nc2c1)C(C)C,0.3,2,2,-4,6,-7,-0.2,5
O=C(c1ccccc1C(F)(F)F)N1CCN(S(=O)(=O)c2ccccc2)CC1,0.3,10,3,.,.,-1,.,-6
COC(=O)c1c(NC(=O)COc2c(C)ccc(C)c2C)sc2c1CCC(C)C2 (centres undefined),1.2,2,-1,.,-1,-1,3.2,-7
CCOC(=O)c1sc(NC(=O)c2cccc(S(=O)(=O)N(CC)CC)c2)cc1C,4.9,1,-3,13,24,-5,0.5,-17
Cc1nnc(NC(=O)CSc2nnc(CCNC(=O)c3ccccc3F)n2C)s1,0.0,1,-5,16,8,8,0.2,-2
Cc1nc(N2CCN(Cc3nc4ccccc4[nH]3)CC2)c2oc3ccccc3c2n1,-0.1,2,-2,14,2,0,0.6,-9
C=CCn1c(SCC(C)=O)nc2scc(-c3ccc(C)o3)c2c1=O,0.4,-1,2,-6,23,-7,-2.5,11
CCC/C(O)=C1\C(=O)CC(C)(C)CC1=Nc1cccc([N+](=O)[O-])c1,-0.1,1,4,0,4,-8,-0.6,9
Cc1ccccc1S(=O)(=O)Nc1nc2ccccc2nc1Cl,0.7,3,-9,-9,9,4,13,-17
CCOC(=O)N1CCN(C(=O)c2cc(-c3ccc(OCC)cc3)nc3ccccc23)CC1,0.0,2,-17,14,-6,1,-1.1,-25
O=C(NC1CCCC1)c1cc(Nc2cccc(C(F)(F)F)c2)nc2ccccc12,1.0,3,-5,.,5,-5,-0.5,0
CCc1nc(SCC(=O)NNC(=O)c2ccc(C)cc2)c2ccccc2n1,-1.8,3,3,9,-3,.,-4.9,2
Cc1cccc(C)c1NC(=O)COc1ccccc1C(=O)Nc1ccc(Br)cn1,0.0,1,-2,12,3,0,0.7,-7
CCc1cc(C(=O)c2ccc(OC)cc2)c(NC(=O)CN2CCCCC2)s1,0.4,5,0,-14,6,-2,0.3,29
O=C1Nc2c(c(=O)[nH]c(=O)n2-c2ccc(Cl)cc2)C1(NS(=O)(=O)c1ccccc1)C(F)(F)F (centres undefined),-0.4,0,-5,.,7,-2,0.2,11
O=C(O)c1ccc(NS(=O)(=O)c2ccc3c(c2)OCCO3)cc1,0.7,1,9,12,6,.,-0.6,-7
O=S(=O)(NCc1ccc2c(c1)OCO2)c1ccccc1F,-1.0,3,-11,.,-6,-1,.,-3
CC(=O)O[C@H]1c2ccccc2-c2ccccc2[C@@H]1OC(C)=O,-1.7,1,-3,-1,12,-6,0.5,0
Cc1nc2ccc(Br)cc2c(-c2ccccc2)c1C(=O)O,0.0,0,-3,3,-3,6,0.1,26
Cc1cc(C)c2nc(SCC(=O)Nc3cc(C)on3)c(C#N)cc2c1,2.8,8,1,0,3,-6,2.6,-24
C=CCn1c(Cc2csc(N)n2)nnc1SCC(=O)Nc1ccccc1C(F)(F)F,0.3,1,-1,-9,-3,0,0.6,0
COc1ccc(-c2cc(C(F)(F)F)c(C#N)c(SCC(=O)Nc3cccc(C)c3)n2)cc1,2.8,10,5,.,.,5,1.5,11
O=C(CSc1ncnc2ccccc12)Nc1cccc(S(=O)(=O)N2CCCC2)c1,0.4,12,-1,0,19,-5,3.1,-19
Cn1c(CCNC(=O)c2ccccc2F)nnc1SCC(=O)Nc1nncs1,0.5,3,9,-8,7,-1,0.1,9
Cc1ccc(CNC(=O)c2sc3ncnc(N(C)C4CCCCC4)c3c2C)cc1,-0.4,1,1,.,3,-1,0.2,-2

# Further results follow.
SMILES,TRHR agonist,D1 ag,TRHR enhancer,D2 antagonist,D2 PAM,D1 PAM,D2 ag,D1 antag
O=C1C(=O)N(Cc2ccncc2)C(c2ccccc2F)/C1=C(\O)c1ccc2c(c1)OCCO2 (centres undefined),0.4,3,-3,15,12,-6,-0.4,-4
CCOC(=O)C1=NN(c2ccc(OC)cc2)C2C(=O)N(c3ccccc3OC)C(=O)C12 (centres undefined),0.4,1,-2,-4,-1,-3,0.7,-7
O=C(O)CCCCCCCCCC(=O)c1cccs1,0.4,2,-6,4,-5,1,1.4,-5
Cc1cc(SC(C)C(=O)O)nc2ccccc12 (centres undefined),0.5,0,-4,-4,12,-3,0.4,2
CN(CC(=O)Nc1ccc(Cl)c(C(F)(F)F)c1)C(=O)c1cccnc1Sc1ccccc1,-0.1,7,-8,12,-12,4,0.2,-13
NS(=O)(=O)c1ccc(CCNC(=O)c2cc(-c3ccccn3)nc3ccc(Br)cc23)cc1,0.2,2,-3,5,-18,6,1.3,2
Cc1ccc(C2C(C(=O)c3cccs3)=C(O)C(=O)N2c2cccc(C)n2)cc1 (centres undefined),0.6,2,1,6,-1,-4,-0.6,11
CCOc1cc(C)c(Cl)cc1S(=O)(=O)NCc1ccc2c(c1)OCO2,0.3,4,4,-12,11,-1,-0.4,7
Cc1cc(C)cc(N(C(=O)c2ccccn2)C(C(=O)NC2CCCCC2)c2cccs2)c1 (centres undefined),-0.1,1,-6,2,-4,-2,0.0,8
O=C(N/N=C/c1ccc2c(c1)OCO2)c1ccc(NS(=O)(=O)c2cccs2)cc1,0.3,-3,2,3,4,1,0.4,9
COc1ccc(NC(=O)CSc2nnc(Cc3cccs3)n2C)cc1,0.0,0,5,-7,1,2,-1.0,-3
COc1cc(OC)cc(-n2c(=O)c3sccc3n(Cc3ccc(F)cc3)c2=O)c1,2.0,1,-2,.,-6,0,1.0,1
O=C(Cc1ccccc1[N+](=O)[O-])Nc1cccc(S(=O)(=O)NC2=NCCCCC2)c1,-0.1,2,2,.,.,-1,.,5
O=C(COc1ccc(S(=O)(=O)NCc2ccccc2)cc1Cl)N1CCOCC1,1.4,7,-9,4,-10,4,0.4,-2
Cc1ccccc1Cn1c(=O)n(Cc2ccco2)c(=O)c2ccccc21,-2.1,1,-7,6,7,0,0.6,11
Cc1ccc(C(=O)C2=C(O)C(=O)N(c3ncccn3)C2c2ccccc2F)o1 (centres undefined),-0.6,1,2,-8,0,4,-0.3,6
CN1CCN(C(=O)c2ccc3c(c2)NC(=O)/C(=C/c2ccccc2)S3)CC1,1.6,10,5,4,22,-10,0.2,-26
CCc1ccc(CNC(=O)C2CCN(c3nc4ccccc4nc3C(F)(F)F)CC2)cc1,0.4,3,0,.,0,2,0.1,20
Cc1ccc(NCc2nnc(SCC(=O)NCc3ccco3)n2CC2CCCO2)c(C)c1 (centres undefined),-1.7,0,-4,-7,-1,-3,0.0,1
CC(C)C(=O)Nc1cccc(C(=O)NCc2ccc(S(N)(=O)=O)cc2)c1,-0.8,0,-4,10,.,-6,-0.8,32
Cc1ccc(NC(=S)Nc2cccc(-c3n[nH]c(=S)o3)c2)cc1,0.4,2,0,13,-6,-10,-0.9,14

# 5 records picked at random from those above:
SMILES,TRHR agonist,D1 ag,TRHR enhancer,D2 antagonist,D2 PAM,D1 PAM,D2 ag,D1 antag
CN1CCN(C(=O)c2ccc3c(c2)NC(=O)/C(=C/c2ccccc2)S3)CC1,1.6,10,5,4,22,-10,0.2,-26
O=C(COc1ccc(S(=O)(=O)NCc2ccccc2)cc1Cl)N1CCOCC1,1.4,7,-9,4,-10,4,0.4,-2
COc1cc(OC)cc(-n2c(=O)c3sccc3n(Cc3ccc(F)cc3)c2=O)c1,2.0,1,-2,.,-6,0,1.0,1
NS(=O)(=O)c1ccc(CCNC(=O)c2cc(-c3ccccn3)nc3ccc(Br)cc23)cc1,0.2,2,-3,5,-18,6,1.3,2
CCOc1cc(C)c(Cl)cc1S(=O)(=O)NCc1ccc2c(c1)OCO2,0.3,4,4,-12,11,-1,-0.4,7

# Source: PubChem BioAssay (National Center for Advancing Translational Sciences (NCATS))
